LASV entry inh: blocks Lassa virus binding to or entry into cells; Lassa virus pseudotype entry inhibition, cell reporter; control for the full effect not named in the record; Potency, µM (highest dose often 37.9 µM), inactives show top-dose activity change, negative = inhibition, most hits filed as inhibitors; hit rate 1.2% among 300,000; AID 540256; active means well fitted inhibition curve with a large enough effect; inconclusive means small, poorly fitted or top-dose-only effect, or effect the other way; inactive means flat fitted curve, though single readings scatter; tested in HEK293 cells; note: % is set by controls: 0 for no effect and ±100 for the full control effect; nearly all actives have a fitted effect of over 50% in size; luciferase read-out
Cruzain Triton: cruzain (T. cruzi) inhibition with detergent; purified cruzain, Z-FR-AMC fluorescence, 0.01% Triton; Potency, µM, without a hit: max response, negative = inhibition, actives largely listed as inhibitors; hit rate 0.43% among 200,000;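 note: plate controls were neutral wells for no effect and buffer without enzyme for full effect; nearly all actives have a fitted effect of over 40% in size; top concentration of the series not given in the record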
Target sequence (P25779 123-467 limits assumed): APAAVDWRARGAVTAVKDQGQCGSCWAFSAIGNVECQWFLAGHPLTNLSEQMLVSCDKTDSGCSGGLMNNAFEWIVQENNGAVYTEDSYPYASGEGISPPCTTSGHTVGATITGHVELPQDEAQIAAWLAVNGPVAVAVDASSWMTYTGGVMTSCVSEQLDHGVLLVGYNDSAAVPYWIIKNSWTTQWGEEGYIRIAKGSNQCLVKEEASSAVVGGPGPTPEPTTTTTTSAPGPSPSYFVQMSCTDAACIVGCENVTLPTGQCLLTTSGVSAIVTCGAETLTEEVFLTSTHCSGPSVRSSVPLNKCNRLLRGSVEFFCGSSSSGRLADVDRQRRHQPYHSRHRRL
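Steps: dispense cruzain (1.5 nM final) in acetate buffer pH 5.5 with DTT and 0.01% Triton X-100; pin-transfer compounds; incubate 15 min RT; add Z-FR-AMC (2 uM final); read fluorescence every 30 s, using the 60 s intensity change.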
Cruzain inh noDet: blocks cruzain activity in detergent-free assay. hit rate 2.3% among 200,000. Potency, µM, for inactives: max response, negative = inhibition, hits mostly inhibitors. AID 1476. purified cruzain, Z-FR-AMC fluorescence, no detergent. P25779;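 note: plate controls were enzyme without inhibitor for no effect and buffer without enzyme for full effect; nearly all actives have a fitted effect of over 40% in size; top concentration of the series not given in the record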
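Purified cruzain at 1.5 nM, pre-incubated 15 min with compound at room temperature in 100 mM sodium acetate pH 5.5, 5 mM DTT, 0.00005% Triton X-100. Reaction started with 2 uM Z-FR-AMC; AMC fluorescence increase over 60 s gives rate.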
RE007 growth inh: less growth of the S. pombe RE007 Vpr strain. S. pombe RE007 Vpr strain, BacTiter-Glo ATP luminescence, 24 h; control for the full effect not named in the record. Potency, µM (series often up to 92.2 µM), inactives show at the top dose activity change, negative = less growth. hit rate 0.21% among 360,000. AID 651644; active = well fitted falling curve with a large enough effect; inconclusive = small, poorly fitted or top-dose-only effect; inactive = no such curve, though single readings can be large or run the other way;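 note: % is set by controls: 0 for no effect and ±100 for the full control effect; nearly all actives have a fitted effect of over 50% in size; the assay follows cell death caused by Vpr and the record does not say whether a fall means rescue or toxicity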
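Fission yeast RE007 carrying one integrated HIV-1 vpr copy, seeded at OD 0.01 in PMG+AL medium with 23 nL pinned compound. Grown 24 h at 30 degrees; viability read by BacTiter-Glo luminescence after 5 min.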
StopGo reporter: lowers the luciferase signal of an FMDV 2A StopGo reporter | human cells with a luciferase reporter of 2A StopGo recoding; control for the full effect not named in the record | Potency, µM (highest dose often 57.9 µM), without a hit: at the highest dose signal change, negative = less light | hit rate 1.2% among 410,000 | AID 1159524; active = well fitted falling curve with a large enough effect; inconclusive = small, poorly fitted or top-dose-only effect; inactive = no such curve, though single readings can be large or run the other way; tested in HEK293T cells; note: % is set by controls: 0 for no effect and ±100 for the full control effect; nearly all actives have a fitted effect of over 45% in size; luciferase light after 4 h
NS1 function inh: inhibitors of influenza NS1 protein function; Potency, µM (titrated, usually from 46.1 µM), for the others: at the top dose activity, positive = more growth; S. cerevisiae slowed by influenza A NS1, growth recovery by OD600; AID 2326; hit rate 0.4% among 270,000; active means well fitted rising curve with a large enough effect; inconclusive means small, poorly fitted or top-dose-only effect; inactive means no such curve, though single readings can be large or run the other way; note: nearly all actives have a fitted effect of over 50% in size
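In this qHTS, NS1 from influenza A is expressed in budding yeast, where it slows growth. Cells are switched from glucose to 2% galactose medium (pH 6.0, -URA), treated with compound, and growth recovery is read at OD600.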
Marburg entry inh: blocks Marburg virus binding to or entry into cells; Marburg virus pseudotyped entry inhibition, cell reporter; control for the full effect not named in the record; about a third of the inactives were read at about 46 µM; Potency, µM (titrated, usually from 37.8 µM), inactives show top-dose activity change, negative = inhibition, actives largely listed as inhibitors; hit rate 1.8% among 300,000; active = well fitted inhibition curve with a large enough effect; inconclusive = small, poorly fitted or top-dose-only effect, or effect the other way; inactive = flat fitted curve, though single readings scatter; tested in HEK293 cells; about a fifth of its hits are not listed in these tables; note: % is set by controls: 0 for no effect and ±100 for the full control effect; luciferase read-out
SARS PLP yeast: inhibitors of SARS-CoV papain-like protease in yeast. hit rate 0.19% among 330,000. Potency, µM (titrated, usually from 32.9 µM), without a hit: at the highest dose activity, positive = growth rescue. S. cerevisiae expressing SARS-CoV PLpro, growth rescue; control for the full effect not named in the record; active means well fitted rising curve with a large enough effect; inconclusive means small, poorly fitted or top-dose-only effect; inactive means no such curve, though single readings can be large or run the other way; note: 0% is about no effect; nearly all actives have a fitted effect of over 55% in size; growth read by luminescence after 48 h
Active calls of the source: *; ? = inconclusive; . = no result given; & = joins results of further samples; [ ] = another dose, or the depositor's remark. Unless noted, calls come from the whole dose curve; as a rule, active = well fitted curve in the direction sought with a large enough effect; inconclusive = small, poorly fitted or top-dose-only effect, or another doubt; inactive = no such curve, though single readings can be large; an effect the other way counts as inactive or inconclusive. Potency is the fitted concentration of half-maximal effect.

SMILES	LASV entry inh	Cruzain Triton	Cruzain inh noDet	RE007 growth inh	StopGo reporter	NS1 function inh	Marburg entry inh	SARS PLP yeast
COc1ccc(C)cc1NC(=O)C(CCS(C)(=O)=O)NC(C)=O (stereo not given)	.	0.6%	5.3%	-10.1%	0.0%	-1.5%	.	7.7%
CCC(C(=O)NCCC(C)C)n1ccc2cc(S(=O)(=O)N3CCCCC3)ccc21 (stereo not given)	.	.	.	3.8%	-9.7%	17.1%	.	-0.4%
COc1ccccc1OCC(=O)Nc1cccc(-c2nnc(-c3ccco3)o2)c1	?	.	.	4.5%	-17.1%	.	6.31µM*	0.7%
Cc1ccc(CN2CCN(CCCn3cccn3)CC2CCO)cc1 (stereo not given)	24.3%[46.1 µM]	.	.	5.9%	-23.3%	4.7%	16.8%[46.1 µM]	1.4%
Cc1nn(-c2ccc(C(=O)Nc3nnc(C4CC4)s3)cc2)c(C)c1Cl	7.9%	2.8%	?	18.0%	0.0%	7.6%	?	-4.4%
Cc1ccc(NS(=O)(=O)c2ccc(OCC(=O)NCc3ccccn3)cc2)cc1	-0.7%	.	.	11.9%	20.8%	.	-7.0%	.
COc1ccc(C(=O)NC(Cn2ccnc2)C(C)(C)C)cc1OC1CCN(C(C)C)CC1 (stereo not given)	14.1%	.	.	-13.8%	-4.4%	9.6%	16.8%	0.8%
CC(C)(C)C(=O)NC1CC2CCCC(C1)N2C(=O)Nc1ccccc1 (stereo not given)	0.4%	.	.	-10.3%	-7.6%	6.2%	20.4%	?
N#Cc1c(-n2cccc2)cccc1-n1cccc1	2.2%	-2.3%	5.6%	-17.3%	12.1%	-16.5%	-11.3%	-4.4%
COc1ccc(OC)c(NC(=O)Cc2cccs2)c1	?	.	.	5.6%	15.7%	-2.2%	?	-0.1%
O=C(Nc1ccc(OC(F)(F)F)cc1)c1noc2c1CCCC2	?	-2.7%	3.0%	.	14.8%	.	?	.
Oc1c(C(c2ccccc2)N2CCCC2)sc2nc(-c3ccco3)nn12 (stereo not given)	-4.1%[46.1 µM]	-1.4%	10.1%	.	15.1%	.	.	.
Cc1sc2nc(CN3CCOCC3)nc(NCCc3ccccc3)c2c1C	-19.0%	-4.4%	1.8%	-6.4%	-7.0%	-4.5%	?	1.9%
Cc1cccc(N2CCN(C(=O)c3noc4c3COc3ccc(C)cc3-4)CC2C)c1 (stereo not given)	-0.9%[46.1 µM]	-0.5%	8.1%	-10.5%	-27.7%&-26.6%	?	.	0.0%
O=C(N/N=C/c1ccc[nH]1)c1sc2ccccc2c1Cl	-31.1%	-17.3%	-6.5%	6.9%	.	-113.1%	?	-17.7%
O=C(CSc1ccccc1)NCc1ccco1	14.8%	?	-32.7%	4.9%	0.0%	3.1%	19.4%	5.0%
CN1C(=O)N(c2nnc(C(C)(C)C)s2)C(=O)C1c1ccccc1 (stereo not given)	?	.	.	7.1%	31.0%[activator]	0.2%	5.7%[46.1 µM]	0.9%
CCN1CCN(C(=O)N(CC(=O)Nc2ccc(C(N)=O)cc2)S(=O)(=O)c2ccc(C)cc2)CC1	?	.	.	17.0%	-4.6%	.	22.5%	.
COc1ccc(C(=O)OCC(=O)NCC2CCCCC2)cc1S(=O)(=O)N1CCCc2ccccc21	-37.1%	-3.1%	-4.9%	-3.2%	15.4%	13.8%	-4.9%	-0.2%
CSc1nsc(SCC(=O)N2CCCCC2)n1	24.6%	.	.	4.9%	80.7%[activator]	.	?	0.0%
Cc1ccc2c(c1)nc(NCCCO)n2C	9.5%	8.5%	2.0%	-0.1%	-6.2%	0.8%	28.8%	0.5%
CCCn1c(SCC(=O)NC23CC4CC(CC(C4)C2)C3)n[nH]c1=O	-11.5%	9.1%	-11.0%	-11.2%	-14.6%	7.5%	-0.8%	9.6%
COc1ccc(-n2c(Cc3cccn3C)nnc2SCC(=O)N2CCCC2)cc1	2.2%	-0.5%	14.8%	-13.5%	0.0%	?	2.5%	13.6%
O=C(Cc1ccccc1[N+](=O)[O-])NCCC1=CCCCC1	?	.	.	15.2%	81.3%[activator]	-0.7%	?	0.4%
CCOC(=O)C1=C(C(F)(F)F)Nc2ncnn2C1c1cc(OC)c(OC)cc1OC (stereo not given)	2.1%	-3.3%	7.0%	-1.6%	-7.3%	0.4%	-2.1%	10.5%
S=C(NCCc1ccccc1)NCCN1CCOCC1	?	.	.	17.3%	15.7%	2.4%	?	5.8%
Cc1nc2ccc(NC(=O)Cc3cccs3)cc2s1	-14.2%	-0.2%	-4.8%	-5.7%	0.0%	-52.5%	14.5%	1.9%
CNC(=O)COc1ccc(S(=O)(=O)Nc2ccccc2)cc1	3.7%[46.1 µM]	.	.	-3.0%	23.6%	-1.5%	-2.0%[46.1 µM]	-1.2%
CC(=O)c1nnn(-c2ccc([N+](=O)[O-])cc2C)c1C	24.0%	.	.	-2.1%	-17.7%	.	24.2%[46.1 µM]	-2.6%
Cc1ccc(C)c(S(=O)(=O)ON2C(=O)c3ccccc3C2=O)c1	16.4%[46.1 µM]	12.6µM*	10µM*	-3.7%	?	1.8%	?	6.8%
O=C(NNC(=O)c1ccccc1Cl)c1ccncc1	-11.7%	1.1%	9.7%	3.1%	2.3%	22.8%	-1.4%	-1.0%
CC1=CC(C)C2COC(c3ccc[n+](C)c3)C1C2C (stereo not given)	3.0%	0.9%	6.4%	-4.0%	-5.5%	5.7%	40.8%	-12.1%
CCCCC(NC(=O)Cc1c(C)c2cc3c(C)c(C)oc3c(C)c2oc1=O)C(=O)O (stereo not given)	.	.	.	16.1%	0.0%	8.3%	4.2%	-0.9%
Cc1nc(-c2ccc(F)cc2)sc1CCNC(=O)c1cccs1	-3.0%[46.1 µM]	-9.7%	-0.5%	.	0.0%	.	.	.
CCCc1cc(C(=O)OC)c(NC(=O)CCC(=O)O)s1	7.1%	.	.	12.0%	-13.0%	-0.3%	8.0%[46.1 µM]	-0.8%
O=C(NC(=S)Nc1ccccc1N1CCOCC1)c1cccs1	-1.3%	-9.9%	-16.3%	-16.5%	?	-6.4%	?	28.9%
O=C1c2ccccc2C(=O)N1OS(=O)(=O)c1ccc(F)cc1	.	.	.	-7.3%	?	9.2%	.	-19.5%
COc1ccc(N(CC(=O)Nc2ccc(F)cc2F)S(=O)(=O)c2c(C)nn(C)c2C)cc1	.	.	.	8.5%	-23.5%	2.9%	.	0.3%
Cc1c(-c2ncn[nH]2)sc(C#N)c1-c1ccccc1	-19.3%[46.1 µM]	.	.	2.1%	-19.6%	.	?	-21.4%
CSc1ccccc1C(=O)OCC(=O)Nc1ccc(N2CCOCC2)cc1	?	.	.	-14.3%	-6.4%	.	-3.1%	3.0%
CC(O)CNCCCOc1ccccc1OCc1ccccc1 (stereo not given)	?	.	.	-5.9%	-18.9%	0.2%	?	-0.3%
Cc1nnc(NC(=O)c2nc(SCc3ccccc3F)ncc2Cl)s1	-0.6%[46.1 µM]	-2.2%	-5.9%	.	-23.5%	.	-11.5%[46.1 µM]	.
NC(=O)CC(NC(=O)Cc1ccc(Cl)cc1)c1ccc(NC2CCN(Cc3ccccc3)CC2)c([N+](=O)[O-])c1 (stereo not given)	.	.	.	-23.2%	-4.6%	1.0%	.	0.1%
CCOC(=O)c1ccc(S(=O)(=O)N2CCN(S(=O)(=O)CC)CC2)cc1	16.8%	3.5%	?	0.3%	-4.5%	1.4%	9.9%[46.1 µM]	-2.6%
Clc1cccc(OCCCCCN2CCOCC2)c1	15.5%[46.1 µM]	.	.	-11.0%	7.1%	-7.5%	-5.6%[46.1 µM]	-3.8%
CCc1ccc2[nH]c(=O)c(CN(Cc3ccc4c(c3)OCO4)C(=O)c3ccco3)cc2c1	14.3%	2.0%	-6.5%	28.2%	?	10.3%	-16.4%	2.3%
CCSc1ccccc1C(=O)NC1CCCCC1	9.2%	.	.	-27.9%	0.5%	1.7%	-20.9%[46.1 µM]	0.7%
COc1ccc(OCCOC(=O)CCS(=O)(=O)c2ccc(C)cc2)cc1	13.7%	.	.	0.6%	-7.5%	.	2.6%	3.1%
C#CCN1C(=O)C(O)(CC(=O)c2cccc(OC)c2)c2ccccc21 (stereo not given)	-5.4%	0.0%	-6.0%	-16.3%	7.6%	-11.4%	?	?
O=C(c1ccccc1F)N1CCN(c2cccc(C(F)(F)F)c2)CC1	-2.1%	-5.7%	12.3%	-23.0%	-18.2%	-47.3%	?	-0.7%
CCCC(=O)N1c2nc(C(C)C)nn2C2(CCCCC2)[C@@H]2CCCC[C@@H]21	18.8%[46.1 µM]	0.7%	-10.0%	.	-6.0%	.	-15.6%[46.1 µM]	.
O=C(O)C[C@@H](CNC(=O)COc1ccc2ccc(=O)oc2c1)c1ccc(Cl)cc1	.	.	.	3.2%	-15.2%	8.6%	.	-2.7%
O=C(NCc1ccco1)c1ccc(COc2cc(Cl)ccc2Cl)cc1	-16.7%	-6.1%	-3.6%	?	-22.9%	2.0%	-17.4%	-8.4%
COCCCNC(=O)CCS(=O)(=O)Cc1ccc(C)cc1	-0.5%	-0.1%	-0.1%	11.2%	.	6.0%	11.8%	10.6%
CCOc1ccc(C(=O)Nc2nnc(SCC(=O)NCC3CCCO3)s2)cc1 (stereo not given)	.	.	.	4.0%	-17.5%	2.1%	.	2.3%
Cc1cccc(C)c1Nc1nnc(SCc2nc3ccccc3s2)s1	-8.8%	-8.5%	31.6µM*	-7.9%	17.7%	13.9%	?	20.3%
Cc1c(NCc2cccnc2)cccc1C(=O)O	?	.	.	1.4%	-15.2%	4.0%	8.7%[46.1 µM]	24.9%
CCCCOc1ccc(C(O)C(CN2CCCCC2)c2ccccc2)cc1 (stereo not given)	?	.	.	-3.1%	?	.	?	0.9%

Screening results as filed in PubChem.
